Mtb bLac sens: beta-lactam sensitization of Mtb H37Rv. AID 434955. 330,000 tested, 0.27% active. M. tuberculosis H37Rv growth with meropenem, percent inhibition; hits of this screen are not shown here. inhibition, % at 25 µM;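 active = about 74% or more and at least 40 points above the plate without the antibiotic, then above 30% in a dose series; inconclusive = first-round hits that could not be retested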;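 also: growth measured after seven days incubation then overnight dye step; 0% = bacteria only wells and 100% = bacteria with antibiotic; twin plates without the antibiotic show which effects depend on it; some results filed as inactive read as strong as hits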
Arbovirus anti: arbovirus infection inhibition | arbovirus infection cell-based antiviral screen | inhibition, % at 10 µM | 200,000 tested, 0.37% active | AID 1251;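 active = inhibition from about 30%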;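 also: bluetongue infection of BSR cells; cell survival read as ATP light after 72 h; 0% = infected wells without compound and 100% = uninfected wells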
YopH inh: YopH (Yersinia) phosphatase inhibition | fluorescence Ex485/Em525 | inhibition, %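 (about 10 µM by stock and volumes)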 | 140,000 tested, 0.16% active;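 active = inhibition of 50% or more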;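 also: controls were vehicle for no effect and minimum signal wells for full effect; inactives centre near -20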
Mtb growth: M. tuberculosis H37Rv growth inhibitors, H37Rv strain (AID 1626); M. tuberculosis H37Rv growth inhibition; higher % means a stronger effect; inhibition, % at 10 µM, or IC50 in µM where a hit was titrated; 220,000 tested, 0.95% active;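 active = confirmed in a dose series; inconclusive = inhibition above 80% but not taken into the dose series; inactive = below 80% or under 30% at every dose of the series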;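 also: bacteria incubated seven days before Alamar blue readout; 0% = bacteria only wells and 100% = bacteria with antibiotic wells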
RecA splice inh: Mtb RecA intein splicing inhibition; P9WHJ3; cell-free RecA intein splicing, fluorescence; inhibition, %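 (about 9 µM by stock and volumes)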; 290,000 tested, 0.75% active; AID 2221; in the data active = inhibition above about 30%; inconclusive = no clear call, values can overlap the other calls;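 also: 0% = vehicle wells and 100% = reference inhibitor control wells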
Target sequence (P9WHJ3 whole entry, looked up, canonical isoform): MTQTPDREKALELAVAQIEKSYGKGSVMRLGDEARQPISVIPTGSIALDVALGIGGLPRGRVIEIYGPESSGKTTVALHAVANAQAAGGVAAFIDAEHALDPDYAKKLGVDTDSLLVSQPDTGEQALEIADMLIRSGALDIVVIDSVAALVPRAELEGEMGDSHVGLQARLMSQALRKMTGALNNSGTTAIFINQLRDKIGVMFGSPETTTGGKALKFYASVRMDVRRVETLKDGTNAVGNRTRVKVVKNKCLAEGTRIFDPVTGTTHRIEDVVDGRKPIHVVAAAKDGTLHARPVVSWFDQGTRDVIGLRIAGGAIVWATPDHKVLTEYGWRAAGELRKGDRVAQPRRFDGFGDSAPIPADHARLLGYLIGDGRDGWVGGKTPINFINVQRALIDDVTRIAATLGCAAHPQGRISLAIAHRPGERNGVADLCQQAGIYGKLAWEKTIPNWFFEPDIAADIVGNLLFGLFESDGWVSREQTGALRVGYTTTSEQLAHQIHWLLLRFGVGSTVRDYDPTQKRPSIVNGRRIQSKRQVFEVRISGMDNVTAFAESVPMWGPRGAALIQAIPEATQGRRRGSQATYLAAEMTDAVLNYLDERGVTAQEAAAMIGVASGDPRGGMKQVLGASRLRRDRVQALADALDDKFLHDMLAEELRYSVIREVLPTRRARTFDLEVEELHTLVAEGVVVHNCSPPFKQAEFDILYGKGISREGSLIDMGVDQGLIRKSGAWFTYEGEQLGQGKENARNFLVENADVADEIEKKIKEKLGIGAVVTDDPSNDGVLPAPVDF
Arbovirus anti repeat: second read-out of Arbovirus anti, no call of its own (marks repeat the call); inhibition, %; measured here: 10K subset replicate screen; many hits read low in the repeat;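 first of two repeat runs on a subset; 0% = infected and 100% = uninfected wells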
Active calls of the source: *; ? = inconclusive; . = not tested or not shown.

Sample of the layout, five compounds:
SMILES	Mtb bLac sens	Arbovirus anti	YopH inh	Mtb growth	RecA splice inh	others
O=C(O)c1cc(Cl)ccc1NC(=O)C1CCCO1 (centres undefined)	14	9	-125	-4%	5.2
CCN(C(=S)Nc1ccc(OC(F)F)cc1)C1CCCCC1	-2	3	.	5%	2.1
COc1ccc(OCC(=O)NNC(=S)NC(=O)c2ccc(Br)o2)cc1	60	.	.	.	-2.7
COc1ccc(NC(=O)NNC(=O)COc2ccc(Cl)cc2C)cc1OC	9	.	.	.	-1.9
CCc1ccc(C(=O)Nc2ccc3c(c2)n(C)c(=O)n3C)cc1	5	.	.	.	-1.6

The list itself (from the top)
SMILES	Mtb bLac sens	Arbovirus anti	YopH inh	Mtb growth	RecA splice inh	others
O=C(O)c1cc(Cl)ccc1NC(=O)C1CCCO1 (centres undefined)	14	9	-125	-4%	5.2
CCN(C(=S)Nc1ccc(OC(F)F)cc1)C1CCCCC1	-2	3	.	5%	2.1
COc1ccc(OCC(=O)NNC(=S)NC(=O)c2ccc(Br)o2)cc1	60	.	.	.	-2.7
COc1ccc(NC(=O)NNC(=O)COc2ccc(Cl)cc2C)cc1OC	9	.	.	.	-1.9
CCc1ccc(C(=O)Nc2ccc3c(c2)n(C)c(=O)n3C)cc1	5	.	.	.	-1.6
Cc1sc2nc(CSCC(=O)Nc3ccc(N4CCOCC4)cc3)[nH]c(=O)c2c1C	-4	.	.	.	-6.3
O=C(COc1cccc(C(F)(F)F)c1)Nc1ccc2[nH]ncc2c1	-3	.	.	.	2.9
C=CCN1C(=O)c2ccc(C(=O)N(CC)CC(=O)Nc3cc(Cl)ccc3C)cc2C1=O	-2	.	.	.	0.1
CCOc1ccccc1Nc1ccnc2cc(Cl)ccc12	-7	-15	.	5%	.
COc1cc2c(cc1OC)CN(C(=O)CSc1nc(C)cc(C)c1C#N)CC2	-16	3	-11	-7%	-4.9
COc1ccc(C2(CNC(=O)/C=C/c3ccco3)CCCC2)cc1OC	-2	4	-11	-1%	1.5
CCOc1ccc(N2C(=O)CC(Sc3nc(C)cc(C)c3C#N)C2=O)cc1 (centres undefined)	20	-2	-32	8%	-1.4
CCN(CC(=O)Nc1c(F)cccc1F)C(=O)CC1CCCC1	-13	.	.	.	-0.5
O=C(c1ccccc1)n1c(=O)c(F)cn(COCCBr)c1=O	26	.	.	.	-0.3
FC(F)(F)c1cccc(Cc2noc(CN3CCSCC3)n2)c1	4	0	.	13%	0.5
O=C(CCN1C(=O)c2ccccc2C1=O)NCCN1CCOCC1	-7	7	-18	-2%	0.9	Arbovirus anti repeat=2
O=C(NCCN1CCOCC1)c1cc2c(=O)n3ccccc3nc2n1Cc1ccccc1	2	0	-27	-2%	-311
CN(CC(=O)Nc1ccc(Cl)cc1)C(=O)Cn1[nH]c(=O)c2ccccc2c1=O	4	.	.	.	-3.1
CCOc1ccc(S(=O)(=O)NCCC(=O)NCCCSc2ccccc2)cc1	-9	.	.	.	-1.9
CC(C)(C)C1CCc2onc(C(=O)NC3CCCC3)c2C1 (centres undefined)	21	-12	-36	2%	-1.0
O=C(Nc1cccc([N+](=O)[O-])c1)C1C2CCCCC21 (centres undefined)	-4	.	.	.	-1.8
Cc1cc(C)nc(NNC2=CC(=O)CC(C)(C)C2)n1	4	8	.	-1%	-0.6
Cc1nccn1Cc1ccccc1	-10	.	.	.	0.7
CC1CCN(C(=O)C(=O)c2cn(CC(=O)N3CCCC3)c3ccccc23)CC1	-4	.	.	.	-2.5
CCC(C)n1ncn(-c2ccc(N3CCN(c4ccc(O)cc4)CC3)cc2)c1=O (centres undefined)	34	-29	-31	-11%	-5.4
CNc1c(NS(=O)(=O)c2cc(Cl)ccc2OC)c(=O)oc2ccccc12	1	.	.	.	-0.6
CC(=O)Nc1ccc(S(=O)(=O)N(C)CC(=O)OCC(=O)N2CCc3ccccc32)cc1	-3	5	-16	.	-1.0
O=C(CNC(=O)C1CCCCC1)NCCCO	5	-1	-37	-11%	.
Cc1ccc(Cl)c(N/C=C/C(=O)c2ccccc2)c1	-2	.	.	.	-0.6
NNc1nc(Nc2ccccc2)nc(Nc2ccccc2)n1	91	-7	.	79%	0.3
O=C(NN=C1CCCCCCC1)c1ccc2ccccc2n1	1	18	.	-7%	-1.1
Cc1cccc(CCN(C(=O)c2csnn2)C(C(=O)NC2CCCC2)c2ccco2)c1 (centres undefined)	1	.	.	.	2.7
COC(=O)[C@@]1(Cc2ccc(OC)cc2)[C@H]2c3cc(C(=O)N4CCCC4)n(Cc4ccc(C)o4)c3C[C@H]2CN1C(=O)c1ccccc1	.	-16	-19	14%	.
CC(=O)N(CCN1CCOCC1)Cc1cc2cc3c(cc2nc1Cl)OCO3	-8	8	.	-2%	.
Oc1ccc(/C=N/Nc2ccc(C(F)(F)F)cn2)c(O)c1	10	.	.	.	42*
CN(C)c1ccc(NC(=O)CCN2CCN(c3ccccn3)CC2)cc1	4	.	.	.	-0.3
COc1ccc(C)cc1NC(=S)N1CCN(c2ncccn2)CC1	0	2	.	3%	1.1
c1ccc(COC(CN2CCCCCC2)CN2CCCCCC2)cc1	-1	.	.	-2%	0.1
Cc1ccc2c(c1)c1c3n2CCN(C(=O)CN2CCN(C)CC2)C3CCC1 (centres undefined)	-1	-29	-13	11%	5.0
CCC(=O)Nc1c(-c2ccccc2Cl)c(=O)c2ccccc2n1C	-16	.	.	.	-1.0
O=C(Cc1c(F)cccc1Cl)Nc1ccncc1	-5	8	3	-2%	5.2
CCCN(CC1CCCO1)C(=O)CCc1nnc(CCc2ccc(OC)cc2)o1 (centres undefined)	0	.	.	.	-1.0
O=C(CC(=O)NC1CCCCC1)N/N=C/c1cccc2ccccc12	-22	-26	-38	0%	-1.7
O=C(COc1ccc(Cl)cc1)NNC(=O)c1ccccn1	99	-29	-19	.	-1.6
Cc1ccccc1NC(=O)Cc1c[nH]c2ccccc12	-6	.	.	.	2.4
CCOC(=O)CCP(=O)(O)C(C)(O)c1ccccc1 (centres undefined)	-9	8	-17	-6%	0.2
CNC(=O)c1nc[nH]c1C(=O)NC	-6	2	-11	-15%	5.3
O=C(CSC(=S)N1CCOCC1)Nc1ncc2c(n1)CC(c1ccco1)CC2=O (centres undefined)	0	.	.	.	-1.3
CC(=O)Nc1ccc(N2S(=O)(=O)c3ccccc3S2(=O)=O)cc1	-8	-6	-19	-3%	.
COc1ccc(-n2c(Cc3cccn3C)nnc2SCC(=O)NCc2ccco2)cc1	5	-2	-21	-8%	0.2
COc1ccccc1CCNS(=O)(=O)c1cc2c3c(c1)C(C)C(=O)N3CCC2 (centres undefined)	0	.	.	.	2.9
OC1(C(F)(F)F)CC(O)(C(F)(F)F)n2nc(-c3ccccc3)cc2N1 (centres undefined)	-2	6	-33	3%	5.5
Cc1cc(C(=O)CN2C(=O)NC3(CCCC3)C2=O)c(C)n1-c1ccc2c(c1)OCO2	-12	-1	-8	1%	3.4
CCOC(=O)N1CCN(CC(=O)Nc2ccc(F)cc2)CC1	-4	8	.	-2%	0.1
COC(=O)CN(C#N)c1nc(C)cc(C)n1	-2	-10	-25	-3%	7.5
O=C(COC(=O)c1cccnc1Nc1cccc(C(F)(F)F)c1)NCc1ccc2c(c1)OCO2	43	-25	-35	-2%	4.0
Cc1cc(-c2ccc(Cl)cc2)oc(=O)c1NC(=O)c1ccccc1	-8	1	-10	0%	-1.5
CSc1nc(C)cc(Oc2ccc(OCCOc3ccccc3)nn2)n1	-3	8	-3	-5%	2.5
Cc1cc(C)cc(OCC(=O)Nc2nc3ccc([N+](=O)[O-])cc3s2)c1	17	0	6	-4%	2.9
CN1CCCC(OC(=O)/C(C#N)=C/c2ccccc2)C1 (centres undefined)	0	0	.	-4%	-2.0

Going on with the list.
SMILES	Mtb bLac sens	Arbovirus anti	YopH inh	Mtb growth	RecA splice inh	others
O=S(=O)(NCC1CCCO1)c1ccc(-c2ccc(S(=O)(=O)NCC3CCCO3)cc2)cc1 (centres undefined)	-7	22	.	0%	-0.7
Cc1ccc(S(=O)(=O)N(CC(=O)N2CCN(c3ccccc3F)CC2)C2CCCCC2)cc1	8	4	-22	-5%	12
COc1cc(OC)c(C(=O)NCc2ccco2)cc1OC	-4	.	.	.	-3.8
CC(C)(C)n1nc2c(c1NC(=O)c1cccc(C(F)(F)F)c1)CS(=O)C2 (centres undefined)	-8	-5	-29	2%	-1.1
COc1cc2c(cc1OC)C(C)N(C(=O)C1COc3ccccc3O1)CC2 (centres undefined)	8	10	-5	-6%	1.4
COC(=O)[C@@H](NC(=O)Nc1cc(Cl)ccc1C)C(C)C	8	3	-39	-4%	-1.4
COc1cc(C(=S)N2CCOCC2)ccc1OC(=O)c1cc([N+](=O)[O-])c(C)c([N+](=O)[O-])c1	-6	11	-8	-3%	-0.4
Cc1cccc(-n2c(N)c(-c3nc4ccccc4n3C)c3nc4ccccc4nc32)c1	63	6	12	?	-21
CCOc1ccc(N=Nc2ccc(O)c3ncccc23)cc1	89	.	.	.	-0.3
NC(Cc1ccccc1)C(O)(c1ccccc1)c1ccccc1 (centres undefined)	0	16	.	0%	-1.2
O=C1CCN(S(=O)(=O)c2cccs2)c2ccc(C(F)(F)F)cc2N1	2	7	.	1%	-0.4
CCCc1c(O)nc(SCCN(CC)CC)n(C(=O)c2ccccc2)c1=O	-2	-3	-22	-7%	5.4
Cc1[nH]nc(NCCO)c1[N+](=O)[O-]	5	19	.	-7%	9.5
CN(CC(=O)Nc1ccccc1Br)C(=O)c1cccc([N+](=O)[O-])c1	4	.	.	.	0.6
CCOc1ccc(C2Nc3ccccc3C(CC)(CC)O2)cc1 (centres undefined)	1	4	.	5%	.
COc1cc(C(=O)NCC(c2ccco2)N2CCc3ccccc3C2)cc(OC)c1OC (centres undefined)	1	.	.	.	0.0
COC(=O)C1=C(C)N=C2SC(C)C(=O)N2C1c1ccc(C(=O)OC)cc1 (centres undefined)	-1	11	-33	-5%	3.4
Cc1ccc(CSc2ccc(-c3cccs3)nn2)cc1	-2	-8	-22	5%	0.2
CCCCC1=CC2=C(c3ccco3)C(=O)C(C)(OC(=O)c3ccc(OC)cc3)C(=O)C2=CN1C1CC1 (centres undefined)	7	.	.	4%	-19
CCc1nc(N2CCN(C(C)=O)CC2)c2c3c(sc2n1)CC(C(C)(C)C)CC3 (centres undefined)	100	.	.	.	1.2
O=C(O)c1cc(-c2cccc(Cl)c2)nc2nc(N3CCCCC3)sc12	3	3	-4	7%	-8.6
O=C(c1ccc(N2CCOCC2)cc1)c1cccs1	2	-6	-58	-2%	-0.2
Cc1ccccc1C(=O)NNC(=S)NC(=O)c1ccc(Cl)cc1Cl	3	-19	-7	?	12
Cc1ccccc1N1CCN(C2CCCN(C(=O)c3ccccn3)C2)CC1 (centres undefined)	?	.	.	.	1.9
CCOC(=O)C1(CC2CCCCO2)CCN(S(=O)(=O)c2ccsc2)CC1 (centres undefined)	-4	-3	.	-5%	-1.3
CCCCCN(C(=O)CCC(=O)OCc1ccc(Cl)cc1Cl)c1c(N)n(CCCC)c(=O)[nH]c1=O	-3	.	.	.	3.1
CC(NC(=O)CN(c1cccc(C(F)(F)F)c1)S(=O)(=O)c1ccc(Cl)c([N+](=O)[O-])c1)c1ccccc1 (centres undefined)	5	0	-35	2%	11
CCOC(=O)c1c(C)nc(C)c(C(=O)OCC)c1-c1ccccc1	14	0	10	4%	.
Cc1nonc1N1CCN(Cc2cn[nH]c2-c2ccc3c(c2)OCO3)CC1	-5	-1	.	5%	14
CCOc1ccc(C2NC(=O)NC(C)=C2[N+](=O)[O-])cc1OC (centres undefined)	-7	.	.	-3%	-5.9
Cc1cc(S(=O)(=O)N(Cc2cccs2)Cc2ccccc2F)ccc1-n1cnnn1	2	5	-32	-4%	-4.6
COc1ccc(C)cc1NC(=O)CN(C)S(=O)(=O)c1ccc2c(c1)n(C)c(=O)c(=O)n2C	5	.	.	.	-1.5
COc1ccccc1/C=c1\sc2nc(-c3ccco3)nn2c1=O	-3	1	-35	-8%	1.2
Cc1ccc(C(=O)CSC2=C(C#N)C(c3ccco3)CC(=O)N2)c(C)c1 (centres undefined)	1	4	-34	2%	8.1
CCCCC1=CC2=C(c3ccco3)C(=O)C(C)(OC(=O)c3ccc(OC)cc3)C(=O)C2=CN1CCCCO (centres undefined)	-1	.	.	-2%	-3.6

Ordered by length of the SMILES (high to low): some entries from above.
SMILES	Mtb bLac sens	Arbovirus anti	YopH inh	Mtb growth	RecA splice inh	others
CCC(C)n1ncn(-c2ccc(N3CCN(c4ccc(O)cc4)CC3)cc2)c1=O (centres undefined)	34	-29	-31	-11%	-5.4
O=C(c1ccccc1)n1c(=O)c(F)cn(COCCBr)c1=O	26	.	.	.	-0.3
Cc1ccc(Cl)c(N/C=C/C(=O)c2ccccc2)c1	-2	.	.	.	-0.6

Screens as filed in PubChem.

This is a subset; the hit share may differ from the screen's.
